TRPV1 potentiator – human TRPV1 potentiation. Q8NER1. TRPV1-expressing cells, Fluo-8 calcium influx, capsaicin EC20 potentiation; host cell line not named in the record; control for the full effect not named in the record. potentiation, % at 8.33 µM. 320,000 compounds, 0.02% hits. AID 540277; active means potentiation above 80%; inconclusive means 30% to 80%; inactive means below 30%; note: 0% is about no effect
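Fluo-8 calcium influx in TRPV1-expressing cells, kinetic read (ex 480/em 520 nm). Compound added and read 3 min for agonist activity, followed by capsaicin at EC20 final and 2 min further read for enhancement.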
CtBP-E1A inh – inhibitors of CtBP/E1A interaction. AlphaScreen GST-E1A/His-CtBP binding, 1536-well; stronger effect = lower value; control for the full effect not named in the record. activity change, % (no concentration beside the values). 340,000 compounds, 0.49% hits. AID 651724; in the data active means activity change below about -65%; inconclusive means about -30% to -65%; inactive means above about -30%; note: % is set by controls: 0 for no effect and ±100 for the full control effect
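In 5 uL wells, 23 nL compound meets equimolar GST-E1A and His-CtBP (5X stock 125 nM each) for 2 h, 37 °C. Beads (5X, 50 ug/mL) then 1 h, 37 °C, dark.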
Six1-Eya2 blk – blocks human Six1 binding to Eya2. AlphaScreen GST-Six1/His-Eya2 binding, biochemical; stronger effect = lower value; control for the full effect not named in the record. activity change, % (test concentration not listed). 360,000 compounds, 0.56% hits. AID 651725; in the data active = activity change below about -65%; inconclusive = about -30% to -65%; inactive = above about -30%; note: % is set by controls: 0 for no effect and ±100 for the full control effect
Target sequence (O00167 whole entry, looked up): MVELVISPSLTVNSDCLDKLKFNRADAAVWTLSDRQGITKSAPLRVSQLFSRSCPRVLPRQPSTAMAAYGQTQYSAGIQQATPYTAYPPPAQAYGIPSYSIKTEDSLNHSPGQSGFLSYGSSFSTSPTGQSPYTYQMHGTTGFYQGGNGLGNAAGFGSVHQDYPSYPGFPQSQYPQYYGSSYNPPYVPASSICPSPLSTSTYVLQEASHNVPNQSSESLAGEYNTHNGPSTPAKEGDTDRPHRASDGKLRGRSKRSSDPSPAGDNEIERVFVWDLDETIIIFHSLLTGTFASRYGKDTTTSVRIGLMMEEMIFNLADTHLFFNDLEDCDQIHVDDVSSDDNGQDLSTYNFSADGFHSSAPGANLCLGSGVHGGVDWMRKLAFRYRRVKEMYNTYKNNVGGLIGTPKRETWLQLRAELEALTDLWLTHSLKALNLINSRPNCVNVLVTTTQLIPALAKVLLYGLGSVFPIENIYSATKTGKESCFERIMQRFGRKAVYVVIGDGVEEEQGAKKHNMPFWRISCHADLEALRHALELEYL
Target sequence (Q15475 whole entry, looked up): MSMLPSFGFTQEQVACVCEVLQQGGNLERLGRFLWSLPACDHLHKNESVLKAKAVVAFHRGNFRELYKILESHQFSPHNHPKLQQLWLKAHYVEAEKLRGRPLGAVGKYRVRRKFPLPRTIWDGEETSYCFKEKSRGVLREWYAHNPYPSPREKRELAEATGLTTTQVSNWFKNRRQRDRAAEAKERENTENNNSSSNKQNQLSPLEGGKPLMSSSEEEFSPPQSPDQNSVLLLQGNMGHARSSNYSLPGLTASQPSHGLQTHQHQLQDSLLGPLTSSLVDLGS
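Six1/Eya2 binding was read as AlphaScreen signal after compounds were pinned into GST-Six1 plus His-tagged Eya2 (5X stock 250/500 nM) in pH 8.0 Tris/NaCl/TCEP buffer, beads added, then incubated 1 h, 37 C, dark.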
TRPML1 ag – human mucolipin-1 channel agonism; 410,000 compounds, 0.12% hits; activation, % (no concentration beside the values); AID 624414; TRPML1-expressing cells, Ca2+ dye fluorescence, FDSS; host cell line not named in the record; reference of the full effect not given here; Q9GZU1; in the data active = activation above about 50%; inconclusive = about 30% to 50%; inactive = below about 30%; note: 0% is about no effect; the text of the record puts the active cut at 80%
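Tet-induced TRPML1-DL cells, 1,500 per well, cultured overnight, were loaded with a no-wash Ca2+ dye for 45–90 min. Calcium fluorescence was recorded on the FDSS for 110 s after compound addition, before the EC80 agonist (4 uM 54-4) was added.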
D2 potentiator – positive allosteric modulators of human D2 dopamine receptor; potentiation, % (no concentration beside the values); DiscoveRx D2 beta-arrestin cells, luminescence, 90 min; 100% = 57 uM dopamine signal; 360,000 compounds, 0.23% hits; active = potentiation of 50% or more; inconclusive = 30% to 50%; inactive = 30% or less;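 note: compound concentration not given in the record; tested on top of an EC20 dose of dopamine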
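PathHunter D2 cells, attached overnight at 37 deg C, received compound in DMSO plus dopamine at EC20 (50 nM final) for 90 min at 37 deg C. Beta-arrestin recruitment was read as luminescence after 1 h with detection reagent at ambient temperature.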
TRPML1 inh – blocks the human TRPML1 channel; AID 624415; activity change, negative = inhibition, % (test concentration not listed); Q9GZU1; 390,000 compounds, 0.02% hits; TRPML1-inducible cells, Ca2+ dye fluorescence, FDSS; stronger effect = lower value; inhibition of EC80 agonist-evoked calcium signal; in the data active means activity change below about -50%; inconclusive means about -30% to -50%; inactive means above about -30%;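 note: stimulus is agonist 54-4 at its EC80 concentration; % is set by controls: 0 for no effect and ±100 for the full control effect; compound concentration not given in the record; the text of the record puts the active cut at -80%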
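TRPML1-DL cells, Tet-induced overnight (~16 h, 37 °C) at 1,500 cells/well, were loaded with Ca8 no-wash dye plus quencher for 45-90 min at room temperature. Compounds were pinned during FDSS kinetic reading; agonist 54-4 at EC80 (4 uM final) then added.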
Active calls of the source: *; ? = inconclusive; . = no result given.

SMILES	TRPV1 potentiator	CtBP-E1A inh	Six1-Eya2 blk	TRPML1 ag	D2 potentiator	TRPML1 inh
CC(C)OCCCNC(=O)C(C)Oc1ccccc1 (centres undefined)	-4	6	2	0.1	-3	-6
CCOC(=O)CSc1nc(C2CC2)cc(-c2ccc(F)cc2)c1C#N	6	34	27	-0.2	-7	8
CCN(C(=O)c1cccs1)C1CCS(=O)(=O)C1 (centres undefined)	-4	6	7	-0.1	-68	8
O=C1c2ccccc2CN1c1ccccc1	-4	-1	2	0.2	-5	-5
O=C(NCCCCCCNC(=O)OCc1ccccc1)OCc1ccccc1	.	-5	1	1.0	1	1
Cn1cc(CN2CCC(n3nccc3NC(=O)c3ccc4c(c3)OCO4)CC2)cn1	.	2	2	-0.2	2	20
CCOC(=O)C1(Cc2ccc(O)cc2)NC(c2ccccc2F)C2C(=O)N(C)C(=O)C21 (centres undefined)	7	13	-1	0.2	-13	5
CCN1CCN(CC(O)COc2ccc(Cl)cc2)CC1 (centres undefined)	4	16	4	0.4	-32	-6
CC(=O)Nc1ccc(Nc2ccc(S(=O)(=O)C(F)(F)F)cc2[N+](=O)[O-])cc1	5	-11	-20	0.7	12	7
Cn1cc(Cl)c(C(=O)Nc2cnn(Cc3ccc(F)cc3)c2)n1	-2	-16	5	0.6	-13	-21
COc1ccc(C2=NO[C@@H]3C(=O)N(Cc4ccccc4)C(=O)[C@H]23)c(OC)c1	-19	0	19	0.2	7	56
c1ccc(CN2CCN(c3nc4ccccc4c4ccccc34)CC2)cc1	-6	-3	-6	-0.9	-37	26
COc1cccc(-n2c(SCC(=O)NCC3CCCO3)nc3c(c2=O)SCC3)c1 (centres undefined)	6	-1	3	-0.5	6	11
O=C(Cn1nc(-c2ccccc2)c2ccccc2c1=O)Nc1cccnc1	20	0	18	1.1	-6	-2
O=C(NCCc1ccccc1)C1CC1	-3	-1	7	1.5	-6	-11
CC(=O)c1cccc(-c2ccnc3c2CC(C(=O)NCC2CC2)O3)c1 (centres undefined)	.	-1	-4	-0.1	-5	78
C(=C\c1ccco1)/c1ccc2ccccc2n1	15	22	0	1.1	-11	27
CCOC(=O)C1=C(C)NC(SCC(=O)O)=C(C#N)C1c1ccco1 (centres undefined)	10	-3	5	1.0	-8	5
CCc1ccc(NC(=O)CSc2nnnn2C)cc1	5	.	18	0.0	2	-8
COc1ccccc1NC(=O)CC(NC1CCCCC1)C(=O)O (centres undefined)	-8	9	8	1.3	-14	23

The closing 2 compounds of the section above lead into the next.
SMILES	TRPV1 potentiator	CtBP-E1A inh	Six1-Eya2 blk	TRPML1 ag	D2 potentiator	TRPML1 inh
CCc1ccc(NC(=O)CSc2nnnn2C)cc1	5	.	18	0.0	2	-8
COc1ccccc1NC(=O)CC(NC1CCCCC1)C(=O)O (centres undefined)	-8	9	8	1.3	-14	23
Cc1cc(C)n(-c2ncc3c(n2)N(C)CCOC3=O)n1	-15	?	?	-0.7	-5	-17
COc1ccc(C(CNC(=O)C(=O)NC2CCCCC2)N2CCN(C)CC2)cc1 (centres undefined)	3	4	0	-0.2	-14	-9
C=CCn1c(C(CC)CC)nc2ccccc21	7	7	0	1.0	-5	8
COC(Cc1n[nH]c(=S)n1-c1ccccc1)OC	29	-6	11	-0.3	7	-9
COc1ccc(/C(O)=C2/C(=O)C(=O)N(CCN(C)C)C2c2cccnc2)cc1OC (centres undefined)	4	-11	-1	0.1	-4	-6
Cc1cccc(OCC(=O)N(Cc2ccco2)C2CCS(=O)(=O)C2)c1 (centres undefined)	-14	23	21	-0.3	2	-1
CC1(C)CC(=O)C2=C(C1)N1CCCCC1CC2=O (centres undefined)	6	4	7	-0.8	1	2
CCn1cc(CN2N=C(C)CC2c2ccccc2)c(C)n1 (centres undefined)	8	-15	-1	-0.4	-4	-7
CC(=O)Nc1ccc(SCC(=O)Nc2oc(C)c3c(C)n[nH]c(=O)c23)cc1	-3	-3	-17	-0.2	5	-1
CCOc1cc2c(cc1OCC)C(c1ccc(OC)c(OC)c1)N(c1ccc(C(=O)O)cc1)C(=O)C2 (centres undefined)	3	-7	5	-0.4	0	11

Of the compounds above, four have an aryl thioether with sulfur outside any ring.
SMILES	TRPV1 potentiator	CtBP-E1A inh	Six1-Eya2 blk	TRPML1 ag	D2 potentiator	TRPML1 inh
CCOC(=O)CSc1nc(C2CC2)cc(-c2ccc(F)cc2)c1C#N	6	34	27	-0.2	-7	8
COc1cccc(-n2c(SCC(=O)NCC3CCCO3)nc3c(c2=O)SCC3)c1 (centres undefined)	6	-1	3	-0.5	6	11
CCc1ccc(NC(=O)CSc2nnnn2C)cc1	5	.	18	0.0	2	-8
CC(=O)Nc1ccc(SCC(=O)Nc2oc(C)c3c(C)n[nH]c(=O)c23)cc1	-3	-3	-17	-0.2	5	-1

Following part.
SMILES	TRPV1 potentiator	CtBP-E1A inh	Six1-Eya2 blk	TRPML1 ag	D2 potentiator	TRPML1 inh
COc1cc(CNc2nc3ccccc3n2Cc2ccccc2)ccc1O	.	-2	-3	-0.7	-25	-1
O=C(CC[C@H]1O[C@@H](n2ccc(=O)[nH]c2=O)[C@H](O)[C@@H]1O)N[C@H](Cc1ccccc1)C(=O)NCc1ccc2c(c1)OCO2	.	2	1	-0.5	-1	.
CC1=CC(C)C(C(=O)O)C(C(=O)Nc2cccnc2)C1 (centres undefined)	0	6	10	0.8	-3	3
O=[N+]([O-])c1ccccc1Oc1ccc(Cl)c2cccnc12	-13	-1	-11	-1.3	-2	49
O=S(O)OC1CS(=O)(=O)CC1c1ccccc1 (centres undefined)	-4	3	4	1.0	-12	-12
CC1(C)Cc2nc(Cl)c(C#N)cc2CO1	3	-1	9	0.0	-5	-9
CCCCCC(C)n1[nH]c(=O)cc1N (centres undefined)	5	3	9	-0.5	-8	29
CCOc1ncccc1C(=O)NNC(=O)CSc1ccc(Cl)cc1	.	-1	4	1.5	-5	52
CCOC(=O)C(=O)N(C)c1c(CC)nc2c(OCc3cc(Cl)cc(Cl)c3)cccn12	.	-4	1	3.1	-2	.
CCC(C)(C)n1nnnc1C(C(C)C)N(Cc1cccnc1)Cc1ccco1 (centres undefined)	-14	-3	9	-0.4	-15	32
NC(=O)CSc1ccc(Br)cc1	6	-2	-3	0.3	-3	1
O=C(CSc1nc2ccccc2c(=O)n1CC1CCCO1)Nc1ccc(F)cc1 (centres undefined)	-20	-28	-2	-0.3	-5	1
COc1ccc(N(CC(=O)NCCSC2CCCCC2)S(C)(=O)=O)c(OC)c1	-4	5	-1	3.1	-12	-17
COc1ccc(N(CC(=O)NCc2ccc(F)cc2)C(=O)CCC(=O)Nc2ccccn2)cc1	-2	-11	-4	-0.1	-12	36
Cc1cccc(C(=O)OCC(=O)NC2CCCCCCC2)c1	-3	-8	9	1.0	-6	3
O=C(COc1ccccc1Cl)Nc1cc(Cl)ccc1O	-8	.	5	3.1	-17	23
Fc1ccc(NC(=S)N2CCSC2c2cccs2)cc1 (centres undefined)	-2	5	4	-0.7	-18	23
CCOC(=O)CSc1nnc(C)c(=O)[nH]1	1	6	9	-0.4	-24	-7
Cc1nnc(SCC(=O)Nc2nccs2)s1	-89	2	4	-0.9	7	15
CC(O)CCc1nc2ccc(C(=O)O)cc2[nH]1 (centres undefined)	13	0	12	0.5	-8	-14
O=C(Cc1c[nH]c2ccccc12)N1CCN(S(=O)(=O)c2cccc(Cl)c2Cl)CC1	-4	-2	-12	0.1	-3	1
Cc1cc(N2CCN(C)CC2)ccc1NC(=O)c1cccc(S(=O)(=O)N2CCc3ccccc3C2)c1	-5	-7	-17	-1.2	-16	-1
COc1ccc(N2C(=O)C3C4c5ccccc5C(C=Nc5ccc(C)cc5C)(c5ccccc54)C3C2=O)cc1 (centres undefined)	.	0	-4	3.2	-11	-14
CCOC(=O)c1cc(C#N)c(N2CCOCC2)nc1-c1ccccc1	-10	12	22	-0.8	1	35
COc1cc(C(=O)NC(C(=O)Nc2cccc(C(C)=O)c2)C(C)C)cc(OC)c1OC (centres undefined)	-8	.	-1	1.2	-9	2
Cc1ccccc1C(=O)Nc1cccc(C(=O)N/N=C/c2ccc3c(c2)OCO3)c1	6	-17	-21	-0.6	-6	15
COc1ccc(/C(N)=N/OC(=O)N2CCOCC2)cc1	5	4	-1	-0.2	1	0
Cc1cc(SCC(=O)N2CCCC2=O)nc2ccccc12	.	14	6	-0.8	-7	-19
O=C(NCC(c1ccco1)N1CCCC1)c1ccc(S(=O)(=O)Nc2ccc(F)cc2)cc1 (centres undefined)	-4	6	0	9.1	-5	6
CC(C)C[C@H](NC(=O)[C@H]1N2C(=O)c3ccccc3C2SC1(C)C)C(=O)N[C@@H](Cc1ccccc1)C(=O)O (some centres undefined)	-1	7	9	.	-30	.
Cc1ccsc1C(=O)NNC(=O)CCN1CCN(c2ccccc2)CC1	-7	-14	7	0.1	-17	-8
CCNC(=S)N1CCC(NC(=O)c2ccco2)CC1	14	5	7	0.4	1	-1
CC(=O)Nc1cccc(C(=O)N(Cc2ccccc2)Cc2ccccc2)c1	-3	3	1	-0.1	0	8
c1ccc(-c2csc(Nc3cccnc3)n2)cc1	-12	19	-17	2.8	-9	-17
CCC(C)[C@H](NC(=O)NCc1ccccc1)C(=O)O (some centres undefined)	5	11	8	1.6	-3	-6
O=C(c1ccc(F)cc1)N1CCN=C1c1ccccc1	-4	-6	-3	0.2	-2	-4
COc1ccc(C2=NOC(C(=O)N3CCCCCC3)C2)cc1OC (centres undefined)	2	-2	3	0.1	-4	-11
CC[N+](CC)(CCCCS(=O)(=O)[O-])CCNP1(=O)C=C(c2ccccc2)OC(c2ccccc2)=C1	-2	9	-2	1.1	-8	7
Cc1cc2c(c(=O)n1Cc1ccco1)C(c1cccnc1)C(C#N)=C(N)O2 (centres undefined)	21	-7	1	1.5	-10	19
COc1cscc1C(=O)O	-4	5	7	0.7	-4	0
COc1ccc(N2C(=O)NC(NC(=O)c3cccnc3)(C(F)(F)F)C2=O)cc1 (centres undefined)	16	.	-1	2.1	6	-22
C=CCNc1sc(C(=O)c2ccccc2)c(N)c1-c1nc2ccccc2s1	15	?	?	1.2	-26	-16
COC(=O)C(F)(F)Sc1c(C)[nH]c2ccccc12	5	4	3	1.4	-14	22
O=[N+]([O-])c1ccc(N2CCN(S(=O)(=O)c3cnc[nH]3)CC2)cc1	2	-8	-3	-0.7	-10	-9
CCN(Cc1ccncc1)Cc1ccc(Br)cc1	9	5	0	0.2	-13	4
CCCn1c(C(C)Nc2nc(-c3ccc(Cl)c([N+](=O)[O-])c3)cs2)nc2ccccc21 (centres undefined)	-7	.	-15	0.5	-8	-12
O=C(COc1ccc2ccc(=O)oc2c1)Nc1ccc(CN2CCOCC2)cc1	-5	-10	-4	1.7	-11	36

Three entries from above, arranged by formula weight, lowest first:
SMILES	TRPV1 potentiator	CtBP-E1A inh	Six1-Eya2 blk	TRPML1 ag	D2 potentiator	TRPML1 inh
CCN(Cc1ccncc1)Cc1ccc(Br)cc1	9	5	0	0.2	-13	4
O=[N+]([O-])c1ccc(N2CCN(S(=O)(=O)c3cnc[nH]3)CC2)cc1	2	-8	-3	-0.7	-10	-9
CCCn1c(C(C)Nc2nc(-c3ccc(Cl)c([N+](=O)[O-])c3)cs2)nc2ccccc21 (centres undefined)	-7	.	-15	0.5	-8	-12

Screens deposited in PubChem BioAssay by National Center for Advancing Translational Sciences (NCATS).
